NS1 inh: blocks influenza NS1 protein function; S. cerevisiae slowed by influenza A NS1, growth recovery by OD600; Potency, µM (titrated, usually from 46.1 µM), for inactives: at the highest dose activity, positive = more growth; actives 0.4% (n = 270,000); AID 2326; note: actives are rising curves; nearly all actives have a fitted effect of over 50% in size
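A cell-based growth assay was used: compounds that relieve NS1-induced slow growth of budding yeast raise OD600. Assay medium was yeast nitrogen base with ammonium sulphate and -URA supplement, pH 6.0, with 2% galactose.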
SARS PLpro yeast: blocks SARS-CoV papain-like protease in a yeast assay; S. cerevisiae expressing SARS-CoV PLpro, growth rescue; control for the full effect not named in the record; Potency, µM (titrated, usually from 32.9 µM), without a hit: at the highest dose activity, positive = growth rescue; actives 0.19% (n = 330,000); note: 0% is about no effect; nearly all actives have a fitted effect of over 55% in size; growth read by luminescence after 48 h
Lassa entry inh: Lassa virus entry inhibition; Lassa virus pseudotype entry inhibition, cell reporter; control for the full effect not named in the record; Potency, µM (doses to about 37.9 µM), without a hit: at the highest dose activity change, negative = inhibition, hits mostly inhibitors; actives 1.2% (n = 300,000); active means well fitted inhibition curve with a large enough effect; inconclusive means small, poorly fitted or top-dose-only effect, or effect the other way; inactive means flat fitted curve, though single readings scatter; tested in HEK293 cells; note: % is set by controls: 0 for no effect and ±100 for the full control effect; nearly all actives have a fitted effect of over 50% in size; luciferase read-out
2A StopGo: lowers the luciferase signal of an FMDV 2A StopGo reporter; actives 1.2% (n = 410,000); human cells with a luciferase reporter of 2A StopGo recoding; control for the full effect not named in the record; Potency, µM (titrated, usually from 57.9 µM), without a hit: top-dose signal change, negative = less light; AID 1159524; active = well fitted falling curve with a large enough effect; inconclusive = small, poorly fitted or top-dose-only effect; inactive = no such curve, though single readings can be large or run the other way; tested in HEK293T cells; note: % is set by controls: 0 for no effect and ±100 for the full control effect; nearly all actives have a fitted effect of over 45% in size; luciferase light after 4 h
Starred values were filed as active, the others as inactive; ? = inconclusive; / = not tested or not shown; [ ] = remark or other dose. Unless noted, calls come from the whole dose curve; as a rule, active means well fitted rising curve with a large enough effect; inconclusive means small, poorly fitted or top-dose-only effect; inactive means no such curve, though single readings can be large or run the other way. Potency is the fitted concentration of half-maximal effect. A portion of the library, so the mix of outcomes need not match the whole.

SMILES	NS1 inh	SARS PLpro yeast	Lassa entry inh	2A StopGo
Cc1ccc(C(=O)Nc2nnc(CC(=O)N/N=C/c3ccc(O)c(O)c3)s2)cc1	?	0%	/	8%
O=C(Nc1cccnc1)c1cccc([N+](=O)[O-])c1	-49%	-1%	/	-12%
Nc1nc(N)c(C=Nc2ccc(Br)cc2)c(Nc2ccc(Br)cc2)n1	4%	-7%	/	-22%
COc1ccc(-c2onc3ccc(C(C)=O)cc23)cc1	4%	1%	/	0%
O=C(Cn1c(-c2cccs2)cc2cc(F)ccc21)N1CCCCC1	/	/	15%[46.1 µM]	-7%
Cc1ccc(C)c(N2CCN(C(=O)Cn3c(-c4cccs4)cc4ccccc43)CC2)c1	/	/	?	-8%
Cc1oc(-c2ccc(Cl)cc2)nc1CSc1nc2ncccc2[nH]1	/	/	15%[46.1 µM]	-10%
CCOC(=O)C1=C(CN2CCN(c3ccc(Cl)cc3)CC2)NC(=O)NC1c1ccc(F)cc1 (stereo not drawn)	/	/	/	?
COc1ccc(Nc2cc(C)c3cc(NC(=O)COc4cccc(C)c4)ccc3n2)cc1	/	/	?	35µM*
CCOc1ccc(CNC(=O)C2CCCN(c3nn4cc(-c5ccc(F)cc5)nc4s3)C2)cc1 (stereo not drawn)	/	/	?	-10%
O=C(Cn1cnc2c(nc3n2CCCCC3)c1=O)Nc1ccc(F)c(Cl)c1	/	/	22%[46.1 µM]	-23%
Cc1c(Cl)cccc1NC(=O)COCc1cc(-c2ccc3c(c2)OCO3)on1	/	/	7%[46.1 µM]	-16%
CCc1ccc(N2C(=O)CN(S(=O)(=O)CC)CC2(C)C(=O)NC2CCCCC2)cc1 (stereo not drawn)	/	/	-8%[46.1 µM]	-3%
CCn1cc(S(=O)(=O)c2ccccc2)c(=O)c2cc(F)c(N3CCCCCC3)cc21	/	/	-18%[46.1 µM]	-21%
Cc1cc(Nc2cccc(C(F)(F)F)c2)nc2ccc(NC(=O)Cc3ccc(Cl)cc3)cc12	/	/	-27%[46.1 µM]	?
O=C(Cn1cc(S(=O)(=O)Cc2ccccc2F)c2ccccc21)NCc1ccccc1Cl	/	/	17%[46.1 µM]	5%
Cn1cc(S(=O)(=O)c2ccc(Cl)cc2)c(=O)c2cc(F)c(N3CCCC3)cc21	/	/	13%[46.1 µM]	-12%
COc1ccccc1CNC(=O)COCc1cc(-c2ccc3c(c2)OCO3)on1	/	/	7%[46.1 µM]	-14%
CCc1ccc(CNC(=O)CN2C(=O)c3cccnc3Oc3ccc(C)cc32)cc1	/	/	-30%[46.1 µM]	-9%
CC1CCN(CC2CCN(C(=O)Nc3ccc(Br)cc3F)CC2)CC1	/	/	20%[46.1 µM]	-11%
Fc1ccccc1N1CCN(c2ncnc3c2nc2n3CCCCC2)CC1	/	/	-8%[46.1 µM]	?
CNC(=O)c1ccc(CSc2nc3cccnc3n2Cc2cccc(F)c2)cc1	/	/	3%[46.1 µM]	-17%
CC(Sc1ncc(S(=O)(=O)c2ccc(C(C)C)cc2)c(N)n1)C(=O)Nc1ccccc1 (stereo not drawn)	/	/	?	?
O=C(NC1CCCCC1)c1ccc(Cn2c(SCc3ccccc3F)nc3cccnc32)cc1	/	/	-10%[46.1 µM]	1%
Cc1cccc(OCC(=O)Nc2ccc3nc(Nc4cccc(C(F)(F)F)c4)cc(C)c3c2)c1	/	/	-1%[46.1 µM]	-1%
CCOCCCNC(=O)Cn1ncc2c([nH]c3ccccc32)c1=O	/	/	-17%[46.1 µM]	-14%
Cc1ccc(CNS(=O)(=O)c2cc3[nH]c(=O)c(=O)[nH]c3cc2C)cc1	/	/	-8%[46.1 µM]	-7%
CC(CNC(=O)c1ccc(Cn2c(SCc3ccccc3)nc3cccnc32)cc1)c1ccccc1 (stereo not drawn)	/	/	14%[46.1 µM]	-4%
CCc1cccc(NC(=O)c2cn3c4c(ccc(Cl)c4c2=O)OC(C)C3)c1 (stereo not drawn)	/	/	-2%[46.1 µM]	-12%
CC1=C(C(=O)NCc2cccc(Cl)c2)C2(CCCCCC2)OC1=O	/	/	19%[46.1 µM]	-9%
CCOc1ccccc1NS(=O)(=O)c1cc2[nH]c(=O)c(=O)[nH]c2cc1C	/	/	-3%[46.1 µM]	8%
CCN(CC)CCCNC(=O)c1cnc(SC)nc1-c1ccccc1	/	/	14%[46.1 µM]	13%
O=C(COCc1cc(-c2cccs2)on1)NCc1ccc(F)cc1	/	/	-11%[46.1 µM]	-11%
O=S(=O)(c1ccc2[nH]c3c(c2c1)CCCC3)N1CCN(c2cccc(C(F)(F)F)c2)CC1	/	/	?	-16%
Cc1ccc(NC(=O)C2CCN(c3nn4cc(-c5ccc(C)cc5)nc4s3)CC2)cc1	/	/	21%[46.1 µM]	24%
CCS(=O)(=O)N1CC(=O)N(c2cc(C)ccc2C)C(C)(C(=O)NC2CCCCC2)C1 (stereo not drawn)	/	/	10%[46.1 µM]	-4%
CCOC(=O)c1cccc(NC(=O)NC(C)c2c(-n3cccc3)sc3c2CCN(C)C3)c1 (stereo not drawn)	/	/	-26%[46.1 µM]	22%
Cc1cccc(N2CCN(C(=O)Cn3c(-c4cccs4)cc4ccccc43)CC2)c1C	/	/	-12%[46.1 µM]	-13%
Cc1ccc(CSc2nc3cccnc3n2Cc2ccc(C(=O)NCc3ccco3)cc2)cc1	/	/	-1%[46.1 µM]	-14%
Cc1cc(C)cc(NC(=O)N2CCC(CN3CCc4ccccc4C3)CC2)c1	/	/	-2%[46.1 µM]	-15%

Single values from above.
O=C(COCc1cc(-c2cccs2)on1)NCc1ccc(F)cc1 in 2A StopGo is entered as -11%
CCOC(=O)c1cccc(NC(=O)NC(C)c2c(-n3cccc3)sc3c2CCN(C)C3)c1 (stereo not drawn) in 2A StopGo is entered as 22%
Cc1cc(C)cc(NC(=O)N2CCC(CN3CCc4ccccc4C3)CC2)c1 in 2A StopGo is entered as -15%

Going on with the list:
SMILES	NS1 inh	SARS PLpro yeast	Lassa entry inh	2A StopGo
Cc1cc2c(n1-c1ccc(C(=O)NCCc3ccccc3)cc1)CCC(C)C2 (stereo not drawn)	/	/	-14%[46.1 µM]	30%[activator]
COc1ccc(N2CCN(C(=O)c3nc(-c4ccc(Cl)cc4)n4c3CCCCC4)CC2)cc1	/	/	-13%[46.1 µM]	-20%
Cc1cc2[nH]c(=O)c(=O)[nH]c2cc1S(=O)(=O)Nc1ccc(OC(F)(F)F)cc1	/	/	-3%[46.1 µM]	3%
COc1ccc(CNS(=O)(=O)c2cc3c(cc2C)n(C)c(=O)c(=O)n3C)cc1	/	/	?	-10%
CCN(CC)c1ccc(NC(=O)CN2C(=O)c3cccnc3Oc3ccccc32)c(C)c1	/	/	-2%[46.1 µM]	20%
CCCn1cc(S(=O)(=O)c2cc(C)ccc2C)c(=O)c2cc(F)c(N3CCN(CC)CC3)cc21	/	/	0%[46.1 µM]	25%
CSc1ccc(CCNC(=O)c2ccc(-n3c(C)cc4c3CCC(C)C4)cc2)cc1 (stereo not drawn)	/	/	?	-9%
O=C(NCCc1ccccc1)c1ccc(Cn2c(SCc3ccc(F)cc3)nc3cccnc32)cc1	/	/	0%[46.1 µM]	0%
O=C(Cn1c(-c2cccs2)cc2cc(Cl)ccc21)NCc1ccccc1	/	/	3%[46.1 µM]	?
COc1ccc(OC)c(-c2noc(N3CCN(c4cccc(C)c4C)CC3)n2)c1	/	/	3%[46.1 µM]	-21%
CCn1cc(S(=O)(=O)c2ccc(OC)cc2)c(=O)c2cc(F)c(N3CCCCCC3)cc21	/	/	7%[46.1 µM]	-7%
COC(=O)c1c(NC(C)=O)c2c3c(sc2n1Cc1cc(C)ccc1C)CCCC3	/	/	12%[46.1 µM]	3%
CCOC(=O)Cc1ccc(NC(=O)N2CCC(CN3CCCCCC3)CC2)cc1	/	/	19%[46.1 µM]	0%
Cc1ccc(CSc2nc3cccnc3n2Cc2ccc(C(=O)NC3CCCCC3)cc2)cc1	/	/	4%[46.1 µM]	23%
CCCC(C(=O)NCc1cccc(Cl)c1)N1Cc2ccccc2C1=O (stereo not drawn)	/	/	-12%[46.1 µM]	2%
COc1ccc(-c2nc(Cn3c(SCc4ccc(F)cc4)nc4cccnc43)c(C)o2)cc1	/	/	-13%[46.1 µM]	-20%
COc1ccc(-c2nc(Cn3c(SCc4ccc(C)cc4)nc4cccnc43)c(C)o2)cc1OC	/	/	?	-9%
Cc1ccc(Cl)cc1NC(=O)N1CCC(CN2CCc3ccccc3C2)CC1	/	/	25%[46.1 µM]	-2%
CCNC(=O)c1ccc(CSc2nc3cccnc3n2Cc2ccc(OC)cc2)cc1	/	/	-8%[46.1 µM]	-14%
CC(C)CC(C(=O)NCCc1ccccc1)N1Cc2ccccc2C1=O (stereo not drawn)	/	/	16%[46.1 µM]	5%
CC(=O)N1c2ccc(S(=O)(=O)N3CCN(c4cc(Cl)ccc4C)CC3)cc2CC1C (stereo not drawn)	/	/	6%[46.1 µM]	?
COc1cc(NC(=O)C(CC(C)C)N2Cc3ccccc3C2=O)cc(OC)c1 (stereo not drawn)	/	/	9%[46.1 µM]	-16%
Cc1ccc(NC(=O)N2CCC(CN3CCCC3)CC2)c(C)c1	/	/	13%[46.1 µM]	-5%
CCCCn1cc(S(=O)(=O)c2ccc(C)c(C)c2)c(=O)c2cc(F)c(N3CCN(C)CC3)cc21	/	/	?	6%
CCc1ccc2nc(N(CCN(CC)CC)C(=O)c3ccco3)sc2c1	/	/	-4%[46.1 µM]	0%
CCN(CC)CCNC(=O)C1CCN(c2nn3cc(-c4ccc(F)cc4)nc3s2)CC1	/	/	?	21%
Cn1cc(S(=O)(=O)c2ccccc2)c(=O)c2cc(F)c(N3CCN(c4ccccc4)CC3)cc21	/	/	28%[46.1 µM]	-13%
Cc1oc(-c2ccccc2)nc1Cn1c(SCc2cccc(C(F)(F)F)c2)nc2cccnc21	/	/	-29%[46.1 µM]	?
Cc1ccc(NC(=O)N2CCC(CN3CCCCCC3)CC2)c(Cl)c1	/	/	-1%[46.1 µM]	16%
Cc1ccc(NC(=O)C(CC(C)C)N2Cc3ccccc3C2=O)cc1F (stereo not drawn)	/	/	13%[46.1 µM]	6%

Some of the entries so far, as comma-separated lines.
compound,NS1 inh,SARS PLpro yeast,Lassa entry inh,2A StopGo
Cn1cc(S(=O)(=O)c2ccccc2)c(=O)c2cc(F)c(N3CCN(c4ccccc4)CC3)cc21,/,/,28%[46.1 µM],-13%
Cc1oc(-c2ccccc2)nc1Cn1c(SCc2cccc(C(F)(F)F)c2)nc2cccnc21,/,/,-29%[46.1 µM],?
Cc1ccc(NC(=O)N2CCC(CN3CCCCCC3)CC2)c(Cl)c1,/,/,-1%[46.1 µM],16%
Cc1ccc(NC(=O)C(CC(C)C)N2Cc3ccccc3C2=O)cc1F (stereo not drawn),/,/,13%[46.1 µM],6%

More compounds:
SMILES	NS1 inh	SARS PLpro yeast	Lassa entry inh	2A StopGo
COc1ccc(CNC(=O)CN2C(=O)c3cccnc3Oc3ccc(C)cc32)cc1	/	/	?	-21%
CCCn1c2ccccc2c2cnn(CC(=O)NCCc3ccc(S(N)(=O)=O)cc3)c(=O)c21	/	/	7%[46.1 µM]	-19%
O=C(Nc1cccc(Cl)c1)N1CCSc2ccccc21	/	/	26%[46.1 µM]	0%
Cc1ccc(-c2cc(C(=O)N3CCN(S(=O)(=O)c4ccc(Br)s4)CC3)[nH]n2)c(C)c1	/	/	-14%[46.1 µM]	?
Cc1ccc(S(=O)(=O)c2cn(Cc3ccccc3)c3cc(N4CCCCC4)c(F)cc3c2=O)cc1	/	/	-3%[46.1 µM]	-7%
O=C(NCCc1ccc(Cl)cc1)c1nc(-c2cccc(F)c2)n2c1CCCCC2	/	/	-2%[46.1 µM]	-8%
COC(=O)c1ccc(Cl)cc1NC(=O)N(Cc1ccc(C)o1)C1CCN(C(C)=O)CC1	/	/	0%[46.1 µM]	-19%
COc1ccc(Br)cc1CNC(=O)CN1C(=O)CCCc2ccccc21	/	/	-34%[46.1 µM]	16%
CCN(CC)c1ccc(NC(=O)CN2C(=O)c3cccnc3Oc3ccc(Cl)cc32)c(C)c1	/	/	-8%[46.1 µM]	-6%
CSc1ncc(C(=O)Nc2cc(C)cc(C)c2)c(-c2ccccc2)n1	/	/	20%[46.1 µM]	-15%

A draw from above in order of SMILES length, largest number first.
SMILES	NS1 inh	SARS PLpro yeast	Lassa entry inh	2A StopGo
COc1ccc(CNC(=O)CN2C(=O)c3cccnc3Oc3ccc(C)cc32)cc1	/	/	?	-21%
CSc1ncc(C(=O)Nc2cc(C)cc(C)c2)c(-c2ccccc2)n1	/	/	20%[46.1 µM]	-15%
COc1ccc(Br)cc1CNC(=O)CN1C(=O)CCCc2ccccc21	/	/	-34%[46.1 µM]	16%

Screening data: PubChem BioAssay, National Center for Advancing Translational Sciences (NCATS)
